GLA inh pH 4.5 = alpha-galactosidase A (human) inhibition, pH 4.5; P06280; purified enzyme, 4-MU-alpha-Gal fluorescence, pH 4.5; activity change, negative = inhibition, % at 105 µM; 230,000 tested, under 10 active; AID 1467; inconclusive = small, poorly fitted or top-dose-only inhibition, or a rising curve; inactive = flat fitted curve, though single readings scatter; no compound was filed as active;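 note: 0% = full activity with enzyme and -100% = basal without enzyme; dose as in the result columns while the protocol names 77 µM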
Rango release inh = inhibitors of RanGTP-induced Rango-importin beta complex dissociation; AID 540253; Potency, µM (titrated, usually from 46.1 µM), for inactives: at the top dose activity change, negative = inhibition; Biochemical FRET Rango-importin beta, RanGTP-induced dissociation; 340,000 compounds, 0.071% hits; active means falling FRET ratio curve, often poorly fitted, with flat reads before Ran was added; inconclusive means other falling curves, or compound fluorescence or quenching; inactive means flat or rising ratio curve;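 note: potency is the fitted concentration of half-maximal effect; % of control where 0% means no effect; nearly all actives have a fitted effect of over 45% in size; -100% = wells without RanGTP and RCC1; the record marks most hits as doubtful in a second field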
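Compounds preincubate 5 min with complex of recombinant Rango and importin beta in PBS with 1 mM DTT. Ran (0.6 uM) loaded with 2 mM GTP plus 0.2 uM RCC1 starts dissociation; FRET is recorded 45 min later.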
Rango complex inh = inhibitors of Rango-importin beta complex formation; Q14974; Rango CFP/YFP FRET sensor + importin beta, 45 min; Potency, µM (titrated, usually from 92.2 µM), inactives show at the top dose inhibition of complex formation; 340,000 compounds, 0.031% hits; active = rising FRET ratio curve, often small or poorly fitted; inconclusive = mostly compound fluorescence or quenching in the first reads; inactive = flat curves in all reads;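 note: potency is the fitted concentration of half-maximal effect; 0% = DMSO wells and 100% = buffer wells lacking importin beta; nearly all actives have a fitted effect of over 15% in size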
Target sequence (Q14974 whole entry, looked up): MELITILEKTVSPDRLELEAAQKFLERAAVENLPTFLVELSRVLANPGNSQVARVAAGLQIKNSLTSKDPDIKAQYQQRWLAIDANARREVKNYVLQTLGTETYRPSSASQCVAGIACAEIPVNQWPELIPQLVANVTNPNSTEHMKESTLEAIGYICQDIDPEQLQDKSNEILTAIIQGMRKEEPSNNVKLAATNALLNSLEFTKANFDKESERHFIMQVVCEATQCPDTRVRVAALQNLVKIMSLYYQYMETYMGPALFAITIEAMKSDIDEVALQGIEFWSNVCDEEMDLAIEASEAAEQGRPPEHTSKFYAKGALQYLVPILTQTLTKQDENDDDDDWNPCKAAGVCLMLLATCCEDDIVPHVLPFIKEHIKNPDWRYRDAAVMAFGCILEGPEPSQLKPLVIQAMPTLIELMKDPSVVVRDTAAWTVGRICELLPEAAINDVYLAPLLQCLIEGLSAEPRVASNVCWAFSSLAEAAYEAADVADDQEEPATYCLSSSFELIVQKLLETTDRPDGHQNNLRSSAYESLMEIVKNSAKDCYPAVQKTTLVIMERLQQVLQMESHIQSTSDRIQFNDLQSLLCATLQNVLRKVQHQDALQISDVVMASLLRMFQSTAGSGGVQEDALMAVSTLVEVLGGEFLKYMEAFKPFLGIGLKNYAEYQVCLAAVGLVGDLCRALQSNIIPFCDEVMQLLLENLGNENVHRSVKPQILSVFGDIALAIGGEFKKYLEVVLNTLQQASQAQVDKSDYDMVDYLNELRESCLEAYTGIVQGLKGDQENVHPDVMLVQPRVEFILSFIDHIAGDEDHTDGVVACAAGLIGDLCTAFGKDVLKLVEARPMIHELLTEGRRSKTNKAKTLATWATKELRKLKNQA
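Inhibition scored from the CFP 486 nm/YFP 530 nm FRET ratio 45 min after adding 0.125 microM importin beta to 50 nM Rango biosensor preincubated 5 min with compound (room temperature, PBS with DTT, Tween-20, BSA). No-importin wells as positive control.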
miR-21 reporter = raises the signal of a miR-21 reporter; HeLa miR-21 FLuc reporter, luciferase, 48 h; Potency, µM (doses to about 38.3 µM), for the others: top-dose reporter change, positive = more light; 340,000 tested, under 10 active; AID 2288; active = well fitted rising curve with a large enough effect; inconclusive = small, poorly fitted or top-dose-only effect; inactive = no such curve, though single readings can be large or run the other way;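 note: % of control where 0% means no effect; miR-21 action dims this reporter so a rising signal means less miR-21 action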
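Compounds were titrated across several concentrations (up to approximately 40 uM) and incubated 48 hours with HeLa miR-21-FLuc reporter cells (miR-21 target sequence downstream of FLuc, endogenous miR-21). Readout was firefly luciferase luminescence after lytic detection reagent.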
Active calls of the source: *; ? = inconclusive; nt = no result given; & = joins results of further samples; [ ] = dose if it differs, or a comment.

SMILES	GLA inh pH 4.5	Rango release inh	Rango complex inh	miR-21 reporter
O=c1c2c(-c3ccc(Cl)cc3)csc2nc2n1CCC2	2	-10%	4.6%	-11%
Cc1ccc(-c2nsc(SCC(=O)Nc3ccc4c(c3)OCO4)n2)cc1	2	10%	0.1%	-57%
Cc1cc(C)c(OCCN2CCCC2)c(Cl)c1	nt	-1%	-4.9%	2%
Cc1[nH]c2ccccc2c1/C=N/NC(=O)CNC(=O)c1ccc2c(c1)OCCO2	2	12%	-1.3%	-1%
CCOc1ccc(-n2c(=O)c3c(C)c(C(=O)N(C)C)sc3n(CC(=O)Nc3ccccc3F)c2=O)cc1	-9[21.1 µM]	-7%	-4.1%	1%
Cc1c(Cl)cccc1NC(=S)NNS(=O)(=O)c1ccc([N+](=O)[O-])cc1	nt	1%	-0.9%	-1%
CC(C)(CC(=O)O)CC(=O)Nc1ccccc1Oc1ccccc1	2	5%	-0.7%	-4%
CC(=O)N1N=C(c2ccco2)CC1c1ccc(Cl)o1 (stereo unspecified)	nt	-7%	-5.1%	-5%
O=C(CSc1nc2ccc(Nc3nc(N4CCOCC4)nc(N4CCOCC4)n3)cc2s1)NCc1ccco1	-14	-2%	-1.8%	8%
CC(C)CCNC(=O)c1ccc2c(SCC(=O)O)c3c(nc2c1)CCCC3	-3	?	-1.0%	1%
Cc1[nH]c2ccccc2c1Cc1n[nH]c(=S)o1	1	-8%	-1.3%	-1%
Cc1cccc(C(=O)OCCN2CCOCC2)c1	nt	-5%	-3.6%	-14%
O=C(Cn1nnc(-c2ccc(N3CCOCC3)cc2)n1)OC1CCCCC1	-15	1%	-1.1%	-3%
O=C1c2ccccc2S(=O)(=O)c2cc(C(=O)N3CCCC3)ccc21	nt	-13%	2.7%	nt
Cc1cccc(N2CCN(c3cccc(C)c3)C2c2cccnc2)c1	-5	-1%	1.2%	-6%
Cc1ccc(C(=O)OCC(=O)NC2CCCCC2)s1	-9	12%	-4.0%	0%
Cc1ccccc1NC(=O)Cc1nnc(SCC(=O)c2ccc(Br)cc2)n1C	-5	-6%	-0.9%	-2%
Cc1cc(C)c(S(=O)(=O)Nc2ccccn2)c(C)c1	nt	-1%	-1.2%	-2%
CCSC1=NN2CCS(=O)(=O)N=C2S1	-13	-1%	-1.8%	-3%
COc1ccc2c(CC(=O)OCC(=O)Nc3cccc(C)c3)coc2c1	nt	10%	-2.0%	nt
N#C/C(C(=O)Oc1ccccc1)=C1\C=Cc2ccccc2N1	3	?	?	-2%
NNS(=O)(=O)c1ccc(Cc2ncc(C(F)(F)F)cc2Cl)s1	1	16%	4.0%	-1%
COc1ccc(Oc2c(Cl)cnn(-c3ccccc3)c2=O)cc1	-1	13%	2.1%	18%
CCc1c(C)nc2cc(-c3cccc(Br)c3)[nH]n2c1=O	nt	2%	-0.3%	-55%
COCCN1CCN(C(=O)c2cc(COc3cncc(Cl)c3)on2)CC1	nt	5%	-1.4%	3%
Cc1ccc(C)c(NC(=O)CN(C)C(=O)c2cccc(S(=O)(=O)N3CCN(Cc4ccccc4)CC3)c2)c1	nt	0%	?	18%
O=C(COC(=O)Cc1n[nH]c(=O)c2ccccc12)Nc1ccc(Cl)cc1F	0	10%	5.0%	3%
COc1ccc(S(=O)(=O)NCc2ccc(C(=O)N(C)Cc3ccco3)cc2)cc1	5	-7%	-0.4%	-1%
COc1cc(/C=C(\NC(C)=O)C(=O)Nc2ccc(NC(C)=O)cc2)ccc1OC(C)=O	-5	-7%	4.6%	-3%
CSc1cccc(NC(=S)N(CCCN2CCCC2)Cc2cccs2)c1	-5	-13%	0.3%	-5%
CCCS(=O)(=O)N1CCC(C(=O)N2CCCC2)CC1	4	-9%	1.3%	-1%
CCCCOC(=O)c1ccc(NC(c2ccc(C)cc2)P(=O)(OC)OC)cc1 (stereo unspecified)	-10	-4%	2.3%	10%
COc1ccc(N2C(=O)c3ccc(C(=O)Nc4cc(OC)ccc4OC)cc3C2=O)cc1	nt	-8%	-0.1%	-4%
CSCCC(NC(=O)c1ccco1)C(=O)N1CCN(Cc2ccccc2)CC1 (stereo unspecified)	nt	0%	1.0%	nt
Nc1ccc(-c2cc(N)n(-c3ccccc3)n2)cc1	7	1%	7.4%	-15%
Cc1cccc(N2CCN(C(=O)c3cccc(N4CCCC4=O)c3)C(C)C2)c1 (stereo unspecified)	nt	15%	-0.2%	21%
Cn1c(CN2CCCCC2)nc2cc(NC(=O)c3ccccc3)ccc21	-10	-9%	-0.1%	-6%
CCOc1ccc(NC(=O)CCCOc2cc(=O)n(C)c3ccccc23)cc1	-7	6%	?	-2%&-6%
CN(C1=NC(=O)C(CC(=O)O)S1)c1ccc(O)cc1 (stereo unspecified)	3	11%	1.2%	-1%
CC(C)NC(=O)c1ccccc1NC(=O)C1COc2ccccc2O1 (stereo unspecified)	3	-2%	-1.7%	3%
CC(=O)Nc1ccc(C(C#N)c2ccccc2)cc1 (stereo unspecified)	4	-13%	0.1%	-2%
Cc1[nH]c(=S)[nH]c(=O)c1Cc1c(O)ccc2ccccc12	nt	2%	-2.0%	nt
O=C(NCc1ccco1)Nc1ccc2nsnc2c1	3	2%	0.0%	-1%
O=C(c1ccc(Cn2cc(Cl)cn2)cc1)N1CCN(c2ccccc2)CC1	-4	0%	3.2%	-1%
COC(CNC(=O)c1c[nH]c2ccc(S(=O)(=O)N3CCOCC3)cc2c1=O)OC	nt	27%	-0.2%	0%
Cc1ccc(C(=O)N/C(=C\c2ccco2)C(=O)NCCN2CCOCC2)cc1C	nt	-8%	-0.7%	-1%
CCOC(=O)c1c(C)c(-c2ccccc2)n(CC(=O)NCCC(C)C)c1C	2	2%	1.4%	-5%
CCCC(=O)Nc1ccc(NC(=O)Cc2ccccc2)cn1	3	23%	-0.2%	-4%
CC(C)Cn1c(N)c(C(=O)COC(=O)c2ccc(Cl)cc2)c(=O)n(C)c1=O	-9	0%	-2.7%	22%
CN(NC1OC(=O)c2ccccc21)c1ccc(Cl)cc1[N+](=O)[O-] (stereo unspecified)	0	15%	5.3%	-22%
Fc1cccc(NCc2ccoc2)c1	3	0%	-0.1%	0%
COc1ccc(S(=O)(=O)CCC(=O)Nc2ccc(OC)cc2OC)cc1	3	4%	0.1%	-5%
CC(=O)c1ccc(NC(=O)CSc2nnc(Cn3cnc4ccccc43)o2)cc1	-3	?	-1.0%	2%
COCC(=O)Nc1ccc(OC)c(Cl)c1	4	-1%	0.7%	-9%
CCOc1ccc(C(=O)N(CC)CC(=O)Nc2ccc3c(c2)OCCO3)cc1	nt	-2%	-4.9%	nt
OC(CNC1CCCC1)COc1ccc(-c2ccccc2)cc1 (stereo unspecified)	4	33%	0.1%	-20%
O=C(COC(=O)Cc1ccc2c(c1)OCCO2)Nc1ccc(S(=O)(=O)N2CCCC2)cc1	4	1%	3.6%	-2%
COc1ccc(C)cc1NC(=O)c1cc2c(s1)CCC2	2	-13%	2.1%	-49%
CCCCCC[C@@H]([C@@H](C)O)n1cnc2c(N)ncnc21	1&1	51%	1.8%	nt
CCN(C(=O)c1cccc(S(=O)(=O)N2CCc3ccccc32)c1)C1CCS(=O)(=O)C1 (stereo unspecified)	nt	0%	-2.5%	nt
(next part)
SMILES	GLA inh pH 4.5	Rango release inh	Rango complex inh	miR-21 reporter
CCn1cnc2c1c(=O)n(Cc1cccc(Br)c1)c(=O)n2Cc1ccccc1	nt	4%	-2.2%	-1%
CSc1ncccc1C(=O)OCC(=O)c1cccs1	-3	-5%	-0.5%	-2%
O=[N+]([O-])c1c(Nc2ccccc2O)cc(Cl)c2nonc12	nt	4%	-6.1%	?
CCOC(=O)c1c(C)[nH]c(C)c1C(=O)COC(=O)[C@@H]1CCCN1S(=O)(=O)c1ccc(Cl)cc1	-5	-3%	0.0%	1%
COCCNc1oc(COc2cccc(C)c2)nc1C#N	-2	-17%	1.4%	-39%
CCN(CC(=O)Nc1c(F)cccc1F)C(=O)CCNS(=O)(=O)c1ccccc1C(F)(F)F	nt	10%	3.0%	nt
CCC1(CC)NC(=O)N(CC(=O)NCc2ccc3c(c2)OCO3)C1=O	-16	8%	0.8%	2%
Cc1cc(C)c(S(=O)(=O)c2cccc(Cl)c2)c(=O)[nH]1	nt	2%	-0.2%	7%
COC(=O)c1c(S(C)(=O)=O)nc(-c2ccccc2)[nH]c1=O	4	-5%	7.1%	13%
Cc1cc(Cl)ccc1NC(=S)N(CCCN1CCOCC1)Cc1cccs1	1	0%	-2.7%	-4%
CN1CCc2c(c3ccccc3n2Cc2ccccc2)C1	5&-4&4	8%&-16%	2.6%&0.4%	11%
CC(=O)Oc1cccc(N2C(=O)C3C4C=CC(CC4)C3C2=O)c1 (stereo unspecified)	nt	1%	3.8%	-9%
CC(=O)c1c(Cl)nc2cccc3c2c1-c1ccccc1C3=O	nt	-18%	-0.5%	11%
COc1ccc(C(=O)NC2CCCc3c2cnn3-c2ccccc2F)o1 (stereo unspecified)	nt	-2%	?	16%
Cc1ccnc(NC(=O)Cc2ccc([N+](=O)[O-])cc2)c1	6	-20%	-0.5%	-13%
COc1cc(F)c(C2=CC(=O)C[C@H](c3ccc4c(c3)OCO4)C2)cc1F	nt	-2%	-3.9%	nt
NC(=O)c1nsc(C(=O)N(c2cccc(F)c2)C(C(=O)NCC2CCCO2)c2cccs2)c1N (stereo unspecified)	9	-2%	-4.1%	4%
CCCc1cc(=O)oc2cc(OCC(=O)NCC3CCC(C(=O)O)CC3)ccc12 (stereo unspecified)	nt	-6%	-3.5%	0%
CC[n+]1c(C)cc2c(sc3ccccc32)c1C	-4	0%	-0.5%	4%
COc1ccc(N2CCN(CC(=O)c3ccc(O)c(C)c3O)CC2)cc1	nt	-4%	0.6%	15%
Cc1cccc(NC(=O)C2CCN(c3nccc(C)n3)CC2)c1	5	13%	0.7%	-5%
Cc1ccc(-n2nc(C)c(C3C(C#N)=C(N)OC4=C3C(=O)CC(C)(C)C4)c2Cl)cc1 (stereo unspecified)	-8	nt	nt	24%
CC(C)OC(=O)CSc1nnc(-c2ccc(Cl)cc2Cl)n1N	4	20%	-0.2%	1%
CCOC(=O)N1CCN(CCC(=O)Nc2cc(OC)cc(OC)c2)CC1	-1	-9%	7.7%	-10%
COCCN1CCC(CO)C1 (stereo unspecified)	nt	1%	-1.4%	nt
CC1(C)CC(=O)C(C=NCCN2CCOCC2)=C(O)C1	8	13%	2.0%	-5%
COC(=O)c1cc2sccc2n1Cc1ccc(C)cc1	1	-9%	1.7%	-4%
COC(=O)/C(C#N)=C/c1c(Oc2cccc(C)c2C)nc2ccccn2c1=O	-2	-14%	-0.4%	0%
CC(=O)c1c(C)[nH]c(C(=O)OCC(=O)Nc2c(C)n(C)n(-c3ccccc3)c2=O)c1C	nt	-2%	-0.1%	nt
CCOC(CCNC(=O)c1cc(-c2cccs2)nc2ccccc12)OCC	nt	0%	-0.7%	10%
CN(C)c1ccc(P(=O)(OC2CCCCC2)C(O)c2ccncc2)cc1 (stereo unspecified)	-1	-9%	-0.2%	-2%
CCNC(=O)COC(=O)C1CCN(S(=O)(=O)c2ccc3c(c2)OCCO3)CC1	nt	3%	-3.1%	nt
CC1=CCC(Cc2nc3ccccc3o2)C1(C)C (stereo unspecified)	-24	-6%	2.8%	-1%

Already shown: an excerpt of the list.
SMILES	GLA inh pH 4.5	Rango release inh	Rango complex inh	miR-21 reporter
COC(=O)c1cc2sccc2n1Cc1ccc(C)cc1	1	-9%	1.7%	-4%
COC(=O)/C(C#N)=C/c1c(Oc2cccc(C)c2C)nc2ccccn2c1=O	-2	-14%	-0.4%	0%
CC(=O)c1c(C)[nH]c(C(=O)OCC(=O)Nc2c(C)n(C)n(-c3ccccc3)c2=O)c1C	nt	-2%	-0.1%	nt
CCOC(CCNC(=O)c1cc(-c2cccs2)nc2ccccc12)OCC	nt	0%	-0.7%	10%
CN(C)c1ccc(P(=O)(OC2CCCCC2)C(O)c2ccncc2)cc1 (stereo unspecified)	-1	-9%	-0.2%	-2%
CCNC(=O)COC(=O)C1CCN(S(=O)(=O)c2ccc3c(c2)OCCO3)CC1	nt	3%	-3.1%	nt
CC1=CCC(Cc2nc3ccccc3o2)C1(C)C (stereo unspecified)	-24	-6%	2.8%	-1%

These rows are one share of the data, so the mix of outcomes need not match the whole.
